Env fusion inh = HIV envelope-mediated fusion inhibition | HeLa-JRFL Env/CEM21 cell fusion, luciferase | inhibition, % at 12.3 µM | 360,000 compounds, 1.1% hits;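 active means mean replicate inhibition score of at least 50 and every replicate individually at or above 50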;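 further: 0% = plate neutral controls and 100% = maraviroc near 300 nM; one replicate is shown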
CSC inhib = cancer stem cell inhibition. 300,000 compounds, 1.1% hits. inhibition, % at 7.5 µM. AID 2717. cancer stem cell-like cells viability, luminescence;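 active means mean at 75% or more and at least half the replicates too; tested in HMLE shEcad cells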;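 further: 0% = median of negative and 100% = median of positive control wells; the first replicate is given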
MT1-MMP act inh = MT1-MMP (human) activation inhibition. P50281. HT1080 RFP-PRO-GFP cells, GFP/RFP ratio fluorescence, overnight; percent of plate control window, DMSO zero. GFP/RFP ratio change, % at 20 µM. 360,000 compounds, 0.061% hits. AID 651647;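 active means GFP/RFP ratio change of at least 30% with cell ATP level not reduced by more than half and red fluorescence within 50% of control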; further: strong numbers were not always called active
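Assay system: HT1080 RFP-PRO-GFP cells. Benchmarks: DMSO vehicle wells and RFP-L50D-GFP reporter cell wells. Times: overnight cell settling, then overnight compound exposure, 37 °C, 5% CO2. Compound: 20 µM single dose, 1% DMSO. Read-out basis: GFP/RFP fluorescence ratio.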
PABP polyA inh = blocks human PABP binding to poly(A) RNA | fluorescence polarization | P11940 | 290,000 compounds, 1% hits | inhibition, % at 35 µM;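 active means 50% or more with normal probe brightness, or confirmed in later tests; about a fifth of its hits are not listed in these tables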;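 further: calls also rest on retests at 20 µM and on dose response follow-up; controls were probe without protein and protein plus probe with vehicle; some compounds called inactive have numbers as strong as hits; many hits fall short of the cut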
Target sequence (P11940 whole entry, looked up): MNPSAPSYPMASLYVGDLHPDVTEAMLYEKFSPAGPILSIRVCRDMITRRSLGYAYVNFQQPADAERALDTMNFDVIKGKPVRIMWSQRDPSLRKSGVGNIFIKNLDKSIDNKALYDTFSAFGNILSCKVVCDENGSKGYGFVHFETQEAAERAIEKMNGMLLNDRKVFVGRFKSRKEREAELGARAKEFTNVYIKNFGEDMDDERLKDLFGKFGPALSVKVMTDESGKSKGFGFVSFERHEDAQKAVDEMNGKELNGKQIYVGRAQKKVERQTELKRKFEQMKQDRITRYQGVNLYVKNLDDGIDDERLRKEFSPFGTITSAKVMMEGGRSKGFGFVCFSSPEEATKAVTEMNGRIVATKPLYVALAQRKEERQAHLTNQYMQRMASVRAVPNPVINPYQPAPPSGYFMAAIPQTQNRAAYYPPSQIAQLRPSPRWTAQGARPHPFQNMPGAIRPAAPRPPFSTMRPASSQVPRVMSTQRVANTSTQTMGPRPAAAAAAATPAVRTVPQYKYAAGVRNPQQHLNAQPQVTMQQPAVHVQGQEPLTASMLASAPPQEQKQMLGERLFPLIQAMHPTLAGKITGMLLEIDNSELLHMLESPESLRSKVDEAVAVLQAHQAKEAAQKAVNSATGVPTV
Rce1 inh = yeast Ras-converting enzyme inhibition; yeast membranes, quenched prenylated peptide cleavage fluorescence; calls only; 290,000 compounds, 0.27% hits;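 active means fall in fluorescence gain of 50% or more versus controls, with final raw signal at or below 3038400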;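 further: plate controls were neutral control wells for no effect and wells lacking membranes for full effect; tested at 10 µM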
eIF4H inh = inhibitors of RNA binding by human eIF4H; 290,000 compounds, 0.94% hits; eIF4H fluorescence polarization binding assay; AID 2012; inhibition, % at 35 µM;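 active means 50% or more with normal probe brightness, or confirmed in later tests; about a fifth of its hits are not listed in these tables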;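 further: calls also rest on retests at 20 µM and on dose response follow-up; 0% = protein and probe with vehicle and 100% = probe without protein; strong numbers were not always called active; many hits fall short of the cut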
Yeast UUG start = alters start codon recognition fidelity in yeast. 350,000 compounds, 0.13% hits. S. cerevisiae UUG-firefly luciferase reporter, luminescence/redox ratio. activity score, % at 18.7 µM. AID 602363;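 active means replicate mean at a twofold rise or more, about +100% in these data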;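 further: firefly luciferase made from a UUG start codon reports start codon fidelity; reporter light over untreated wells divided by growth signal over untreated wells; some hits fall short of that in this replicate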
eIF4H inh retest = recorded beside eIF4H inh, whose call it bears; inhibition, %; compound at 20 µM; confirmation average;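 mean of two retest wells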
PABP polyA inh retest = second read-out of PABP polyA inh, no call of its own (marks repeat the call); inhibition, %; compound at 20 µM; confirmation repeats;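 mean of two retest wells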
MT1-MMP act inh RFP = second read-out of MT1-MMP act inh, no call of its own (marks repeat the call); RFP signal change, %; measured here: RFP expression control read;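 0 = vehicle wells; hits needed this value within 50% of zero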
Starred values were filed as active, the others as inactive; i = inactive; / = no result given.

SMILES	Env fusion inh	CSC inhib	MT1-MMP act inh	MT1-MMP act inh RFP	PABP polyA inh	Rce1 inh	eIF4H inh	Yeast UUG start	others
CCN(CC)S(=O)(=O)c1ccc(N2CC(C(=O)NCc3ccc4c(c3)OCO4)CC2=O)cc1 (stereo unspecified)	/	-2	-1	-4	/	/	/	-8
CSc1ccc(CN(C)C(=O)c2cc3ccccc3o2)cc1	-13	4	0	-4	15	i	2	-20
COc1ccc(S(=O)(=O)Cc2ccc(C(=O)N3CCN(c4cc(Cl)ccc4C)CC3)o2)cc1	-3	36	0	2	-5	i	-9	-9
O=C(NCc1cccs1)c1ccccc1	-78	-15	-5	2	3	i	2	-29
CCOC(=O)n1c(=O)n(Cc2ccc(OC)cc2)c2ccccc21	-1	8	-2	-1	2	i	-6	9
COc1cc(CN2C[C@@H](CO)O[C@@H](n3cnc4c(NC5CCC5)ncnc43)C2)cc(OC)c1OC	-1	/	3	8	/	/	/	3
CCOc1ccc2nc(COC(=O)c3ccncc3)c(C(=O)c3ccccc3)[n+]([O-])c2c1	-26	1	-1	2	0	i	-8	0
Fc1ccc(N2CCN(c3nnnn3-c3ccccc3)CC2)cc1	14	-15	-3	-3	-12	i	-7	-4
O=C(NCc1ccccc1)c1ccc2c(c1)C(=O)N(CC1CCCO1)C2=O (stereo unspecified)	-6	-15	2	4	5	i	0	-20
CCCCN(CCCC)Cc1cc(=O)oc2cc(C)cc(C)c12	-3	/	-3	-1	/	/	/	-5
CC(=O)Nc1cccc(-c2nc3ccccc3[nH]2)c1	-15	7	2	-2	2	i	6	-11
CCNC(=S)Nc1ccc2c(c1)c(=O)n(C)n2Cc1cccc(C(F)(F)F)c1	16	/	2	-8	/	/	/	-19
CC(C)(C)c1ccc(C(=O)N2CCN(C(=O)c3cccs3)CC2)cc1	6	-5	-1	-3	/	/	/	-12
Cc1ccc(NC(=O)Cn2ccnc2)cc1C	2	-4	1	-4	10	i	-13	-13
Cc1ccc(-c2c[n+]3c(n2-c2ccccc2)SCC3)cc1	59*	6	-6	-33	0	i	3	/
CC1(C(=O)NCc2ccc(C(F)(F)F)cc2)CCN1Cc1ccc(-c2ccccc2)o1 (stereo unspecified)	40	/	-4	0	/	/	/	4
Cc1csc(SCC(=O)Nc2ccccn2)n1	/	-9	2	3	-6	i	-3	-6
FC(F)(F)c1nnc2n1N=C(c1cccs1)CS2	-36	-28	-4	1	-10	i	2	-5
CC1CCCC(NC(=O)c2cccc(S(=O)(=O)N3CCOCC3)c2)C1C (stereo unspecified)	19	/	0	-2	/	/	/	-3
CNS(=O)(=O)c1ccc(NS(=O)(=O)c2ccccc2F)cc1	5	-12	-2	1	-3	i	-4	/
Cc1c(Br)c([N+](=O)[O-])nn1CC(=O)N(C)Cc1ccccc1	-2	-9	1	7	-3	i	-1	/
CC(C)(C)c1cnnn1-c1ccc(C=O)cc1	/	1	6	4	1	i	3	/
COc1cccc(CNS(=O)(=O)c2c(C(=O)N3CCCC3)c(C)n(C)c2C)c1	-36	-7	10	10	8	i	1	-9
Cc1ccccc1C(=O)O/N=C/c1c(N2CCOCC2)n(C)c2ccccc12	60*	-4	-5	-1	1	i	8	5
Cc1cccc(/C=N/NC(=O)Cn2nccc2C)n1	6	4	-1	0	-16	i	-1	-16
COc1ccccc1Cc1c(-c2ccc(C#N)cc2)nc2c3ccccc3ccn12	-12	/	-1	-2	/	/	/	2
COCCn1c(SCC(=O)N(C)c2c(N)n(Cc3ccccc3)c(=O)[nH]c2=O)nnc1-c1cccc(C)c1	-22	1	2	5	/	i	/	1
O=C(NNC(=O)c1ccccc1Br)c1cnccn1	/	2	0	2	/	/	/	-21
c1ccc(N2CCN(c3nnnn3-c3ccccc3)CC2)cc1	/	-19	4	4	4	i	-2	2
CCOC(=O)N1CCC(NC(=O)C2CCC(Cn3c(=O)[nH]c4ccccc4c3=O)CC2)CC1 (stereo unspecified)	35	9	4	-6	/	/	/	7
CCC1CCCCN1C(=S)Nc1ccc(OC(F)F)cc1 (stereo unspecified)	-4	-2	4	6	-4	i	8	/
O=C(O)CC/C(=N\NC(=O)CNC(=O)c1cccc(Cl)c1)c1ccccc1	-9	5	2	5	-3	i	30	/
CCCC(=NCCc1c(C)[nH]c2ccccc12)C1=C(O)CC(c2ccccc2)CC1=O (stereo unspecified)	/	/	-9	-18	70	i	-10	7	eIF4H inh retest=-4;PABP polyA inh retest=7
COc1ccc(-n2nnc3c(=O)n(CC(=O)N4CCC(C)CC4)cnc32)cc1	17	-9	0	0	-8	i	-3	3
O=C(Nc1ccc(S(=O)(=O)N2CCCCC2)cc1)c1ccc(=O)[nH]c1	2	/	-1	-1	/	/	/	-16
CN(CC(=O)Nc1c(Cl)cccc1Cl)C(=O)CNC(=O)C1CCCCC1	-2	17	/	/	-12	i	-9	-12
CCN(Cc1ccncc1)Cc1nc(Cc2ccccc2Cl)no1	34	-8	2	-15	7	i	-8	-15
O=C1CSC(c2cccnc2)N1Cc1ccc(Cl)cc1 (stereo unspecified)	9	11	1	-2	1	i	-4	-11
CCN1C(=O)[C@H]2[C@@H](c3ccc(-c4cccc(Cl)c4)c(OC)c3)N[C@@](Cc3ccccc3)(C(=O)OC)[C@H]2C1=O	22	13	-4	-12	/	i	/	-2
Cc1ccc(S(=O)(=O)NC(=O)C2CCCCC2)cc1	/	1	-6	-1	/	/	/	-9

Some of these compounds in order of length of the SMILES, lowest first.
SMILES	Env fusion inh	CSC inhib	MT1-MMP act inh	MT1-MMP act inh RFP	PABP polyA inh	Rce1 inh	eIF4H inh	Yeast UUG start	others
Cc1csc(SCC(=O)Nc2ccccn2)n1	/	-9	2	3	-6	i	-3	-6
O=C(NNC(=O)c1ccccc1Br)c1cnccn1	/	2	0	2	/	/	/	-21
O=C1CSC(c2cccnc2)N1Cc1ccc(Cl)cc1 (stereo unspecified)	9	11	1	-2	1	i	-4	-11
CC(=O)Nc1cccc(-c2nc3ccccc3[nH]2)c1	-15	7	2	-2	2	i	6	-11
CSc1ccc(CN(C)C(=O)c2cc3ccccc3o2)cc1	-13	4	0	-4	15	i	2	-20
Fc1ccc(N2CCN(c3nnnn3-c3ccccc3)CC2)cc1	14	-15	-3	-3	-12	i	-7	-4
CC(C)(C)c1ccc(C(=O)N2CCN(C(=O)c3cccs3)CC2)cc1	6	-5	-1	-3	/	/	/	-12
Cc1ccccc1C(=O)O/N=C/c1c(N2CCOCC2)n(C)c2ccccc12	60*	-4	-5	-1	1	i	8	5
O=C(O)CC/C(=N\NC(=O)CNC(=O)c1cccc(Cl)c1)c1ccccc1	-9	5	2	5	-3	i	30	/
CCNC(=S)Nc1ccc2c(c1)c(=O)n(C)n2Cc1cccc(C(F)(F)F)c1	16	/	2	-8	/	/	/	-19
CC1(C(=O)NCc2ccc(C(F)(F)F)cc2)CCN1Cc1ccc(-c2ccccc2)o1 (stereo unspecified)	40	/	-4	0	/	/	/	4
CCOc1ccc2nc(COC(=O)c3ccncc3)c(C(=O)c3ccccc3)[n+]([O-])c2c1	-26	1	-1	2	0	i	-8	0
CCN(CC)S(=O)(=O)c1ccc(N2CC(C(=O)NCc3ccc4c(c3)OCO4)CC2=O)cc1 (stereo unspecified)	/	-2	-1	-4	/	/	/	-8
COc1cc(CN2C[C@@H](CO)O[C@@H](n3cnc4c(NC5CCC5)ncnc43)C2)cc(OC)c1OC	-1	/	3	8	/	/	/	3
COCCn1c(SCC(=O)N(C)c2c(N)n(Cc3ccccc3)c(=O)[nH]c2=O)nnc1-c1cccc(C)c1	-22	1	2	5	/	i	/	1
CCN1C(=O)[C@H]2[C@@H](c3ccc(-c4cccc(Cl)c4)c(OC)c3)N[C@@](Cc3ccccc3)(C(=O)OC)[C@H]2C1=O	22	13	-4	-12	/	i	/	-2

(list continues)
SMILES	Env fusion inh	CSC inhib	MT1-MMP act inh	MT1-MMP act inh RFP	PABP polyA inh	Rce1 inh	eIF4H inh	Yeast UUG start	others
CCC(=O)c1ccc(OCC(=O)Nc2cc(S(=O)(=O)N3CCCCC3)ccc2N2CCN(CC)CC2)cc1	43	-8	-1	0	/	i	/	-1
O=C1CCCc2nc(N3CCN(Cc4ccccc4)CC3)ncc21	31	12	-4	-5	-1	i	-1	-2
Cc1ccc(C(=O)N/C(=C\c2cn(S(=O)(=O)N(C)C)c3ccccc23)C(=O)NCCN2CCOCC2)cc1	-179	/	3	-2	-4	i	7	-13
CC(=O)c1c(C)[nH]c(C(=O)Nc2cccc(C#N)c2)c1C	-21	7	7	-1	4	i	4	-13
C(=N/n1c2ccccc2c2ccccc21)/c1ccco1	/	6	21	0	-4	i	42	3
Cc1ccccc1-c1nc(CS(=O)CC(=O)NCCc2ccc(Cl)cc2)c(C)o1 (stereo unspecified)	15	-16	1	1	9	i	-12	0
O=C(NCCN1C(=O)S/C(=C/c2ccccc2)C1=O)C1CCCN1C(=O)c1cccs1 (stereo unspecified)	0	17	-2	-1	-8	i	-10	/
OCCNc1nc(Nc2ccccc2OC(F)(F)F)nc(N2CCCC2)n1	-1	12	2	-2	/	i	/	7
O=C(CSc1ccccn1)Nc1cccc([N+](=O)[O-])c1	9	-8	-6	-2	12	i	2	/
Cc1nn(Cc2c(Cl)cccc2Cl)c(C)c1NC(=O)CCCn1nc([N+](=O)[O-])c(Cl)c1C	/	12	3	-4	4	i	0	4
O=Nc1onc(-c2ccc([N+](=O)[O-])cc2)c1NO	-49	/	1	0	-5	i	-2	/
CN(C)CCCN(C(=O)c1ccc(S(=O)(=O)N(C)C2CCCCC2)cc1)c1nc2ccc(Br)cc2s1	8	-10	-2	0	-5	i	-7	7
CC1(C(=O)NCc2cccc3ccccc23)CCN1Cc1ccc(-c2ccccc2)o1 (stereo unspecified)	102*	/	0	-5	/	/	/	-5
CCCC(=O)Nc1cc(C)c(NC(=O)c2cccs2)cn1	-2	2	0	2	13	i	-16	/
CN(C)CCCNC(=O)C[C@H]1C[C@H](C(=O)N2CCOCC2)[C@@]2(CCC3CCCC3)c3[nH]c4cc(-c5ccco5)ccc4c3CCN2C1=O	11	/	-3	-2	/	/	/	17
Cn1nc(C(F)(F)F)c(/C=N/OC(=O)c2ccccc2)c1SCc1ccc(Cl)cc1	-56	-14	-9	-8	4	i	1	-3
O=C(CCNC(=O)c1ccco1)NCc1ccc(C(=O)O)cc1	16	-5	-1	2	/	/	/	-14
CN(CC1CCCO1)S(=O)(=O)c1ccc(C(=O)Nc2nccs2)cc1 (stereo unspecified)	-12	22	0	-10	-2	i	-13	-17
CCn1c(C)nc2cc(OC)ccc21	-4	-7	-4	1	2	i	1	-12
Cc1c(C(=O)NCCCN2CCCC2=O)oc2c(Cl)cccc12	12	-4	5	2	/	i	/	/
COc1cc(NC(N)=S)c(OC)cc1Cl	-1	-2	0	2	4	i	-10	/
Cc1csc(NC(=O)CSc2nnc(-c3ccncc3)o2)n1	/	2	-1	0	3	i	-1	0
CC(C(=O)Nc1ccc(Cl)cc1Cl)N1C(=O)NC2(CCCCCCC2)C1=O (stereo unspecified)	-4	-10	4	0	/	/	/	7
O=C(NC(=S)NCc1ccncc1)c1ccccc1	-12	-4	0	-5	-11	i	5	-9
COc1cc(/C=C2\N=C(c3ccccc3)OC2=O)ccc1OCc1c(C)no[n+]1[O-]	-10	-4	-2	1	6	i	-6	/
O=C1N=C(N2CCCC2)S/C1=C\C=C\c1ccccc1	-49	2	-6	-5	-1	i	6	-44
COc1ccc(Br)cc1CN(C)CC(=O)Nc1c(Cl)cccc1Cl	7	-7	-6	-2	-7	i	-2	-32

From PubChem BioAssay
